Ba/F3 V617F tox: reduced viability of JAK2V617F-dependent Ba/F3 cells, primary screen, JAK2V617F inhibitor project, cell-based, Ba/F3 EpoR-JAK2V617F, luminescence. ATP luminescence. inhibition, % at 5.6 µM. 1.1% of 220,000 active. AID 1446, 2008;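 active = inhibition above the campaign mean plus 3 SD over all tested compounds, cut at about 24% in these data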;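 also: cytokine-independent growth of Ba/F3 cells driven by EpoR plus mutant JAK2; 0% = DMSO-treated cells and 100% = JAK inhibitor I control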
BaF3 parental: parental Ba/F3 cell viability inhibition, counter-screen for JAK2V617F inhibitor project, murine pro-B, CellTiter-Glo luminescence; CellTiter-Glo ATP luminescence; inhibition, % at 5.6 µM; 1.1% of 220,000 active; AID 1486, 2009;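 active = inhibition above a per-campaign cutoff, the mean inhibition of all tested compounds plus 3 SD, cut at about 27% in these data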;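 also: 0% = DMSO wells and 100% = JAK Inhibitor I control wells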
S1P4 ag: S1P4 receptor agonists, primary screen, cell-based | Sphingosine 1-phosphate receptor 4 (Homo sapiens), O95977 | S1P4-expressing cell line, agonist reporter assay | activation, % at 4.98 µM | 0.35% of 220,000 active | AID 1509, 2009; in the data active = activation above about 11%;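 also: 0% = DMSO vehicle and 100% = reference agonist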
RBBP9 inh: human RBBP9 inhibitors, primary screen, biochemical, fluorescence polarization, FP-Rh probe, HTS; recombinant RBBP9; inhibition, % at 7.94 µM; 0.2% of 220,000 active;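 active = inhibition above the campaign mean of all tested compounds plus 3 SD, cut at about 14% in these data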;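 also: plate controls were DMSO wells with RBBP9 for no effect and wells lacking RBBP9 protein for full effect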
Target sequence (O75884 whole entry, looked up): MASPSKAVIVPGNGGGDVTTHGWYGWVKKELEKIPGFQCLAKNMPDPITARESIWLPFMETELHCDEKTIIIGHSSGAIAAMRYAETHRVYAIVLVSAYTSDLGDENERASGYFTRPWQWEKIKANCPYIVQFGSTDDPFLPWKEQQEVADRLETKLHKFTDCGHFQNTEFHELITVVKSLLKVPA
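System: RBBP9 protein / Quantity: 2.5 µM RBBP9 dispensing solution, before mixing / Also added: Serine-hydrolase probe FP-Rh, 375 nM pre-mixing / Dosing: 7.94 µM single dose, 0.794% DMSO / Timing: enzyme-compound preincubation 30 min, then probe labeling 45 min, 25 °C / Signal: FP readout at 525/598 nm / Controls: DMSO-treated enzyme wells and wells lacking RBBP9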
S1P4 antagonist: S1P4 receptor antagonists, primary screen, cell-based; Sphingosine 1-phosphate receptor 4 (Homo sapiens), O95977; S1P4-expressing cells, antagonist mode, reporter read-out; inhibition, % at 4.98 µM; 0.26% of 220,000 active; in the data active = inhibition above about 29%;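 also: 0% = wells stimulated with agonist and 100% = vehicle wells without agonist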
The depositor's hits bear a star; & = joins results of further samples. The list is partial (hit frequency here may not be typical).

Keys: A = Ba/F3 V617F tox; B = BaF3 parental; C = S1P4 ag; D = RBBP9 inh; E = S1P4 antagonist
> CC(=O)OC1C2CCCC1C(N1CCCC1)CC2 (stereo not drawn)
  A: 2&4	B: -1&2	C: -1.2&0.1	D: -5&-6	E: -4&0

> CCCCOc1ccc(CC2C(=O)N(C)C(=O)N(C)C2=O)cc1
  A: -2	B: 3	C: 4.4	D: -2	E: 5

> Clc1ccc(COC(Cn2ccnc2)c2ccc(Cl)cc2Cl)cc1 (stereo not drawn)
  A: -1	B: 8	C: 0.6	D: 0	E: -31

> Cc1ccc(NP(=O)(Oc2ccccc2F)Oc2ccccc2F)cc1
  A: -2	B: 66*	C: 0.5	D: 2	E: -4

> C=CCn1c(O)c(C=NCCN(C)C)c(=O)[nH]c1=O
  A: -1	B: 1	C: 0.0	D: -12	E: -1

> COc1ccc(-n2c(O)c(C(C)=NCCCn3ccnc3)c(=O)[nH]c2=O)cc1
  A: -1	B: 6	C: -0.9	D: 0	E: -2

> Cc1ccc(C2CC(=O)C(C=NCCN3CCN(C(=O)Cc4ccccc4)CC3)=C(O)C2)cc1 (stereo not drawn)
  A: 1	B: 1	C: -0.3	D: 8	E: -14

> O[C@@H]1CCCC[C@H]1N1CCC(c2ccccc2)CC1
  A: 1&-1	B: -1&-2	C: -0.1&0.5	D: -3&2	E: -14&11

> CC(NCc1ccc(Cl)cc1Cl)C(O)c1ccccc1 (stereo not drawn)
  A: -2	B: 3	C: 1.2	D: -11	E: -11

3 entries drawn at random from the list so far:
Keys: A = Ba/F3 V617F tox; B = BaF3 parental; C = S1P4 ag; D = RBBP9 inh; E = S1P4 antagonist
> Clc1ccc(COC(Cn2ccnc2)c2ccc(Cl)cc2Cl)cc1 (stereo not drawn)
  A: -1	B: 8	C: 0.6	D: 0	E: -31

> COc1ccc(-n2c(O)c(C(C)=NCCCn3ccnc3)c(=O)[nH]c2=O)cc1
  A: -1	B: 6	C: -0.9	D: 0	E: -2

> Cc1ccc(NP(=O)(Oc2ccccc2F)Oc2ccccc2F)cc1
  A: -2	B: 66*	C: 0.5	D: 2	E: -4

Single records (already shown):
Shown for Clc1ccc(COC(Cn2ccnc2)c2ccc(Cl)cc2Cl)cc1 (stereo not drawn) → Ba/F3 V617F tox = -1; BaF3 parental = 8; S1P4 ag = 0.6; RBBP9 inh = 0; S1P4 antagonist = -31
Shown for Cc1ccc(NP(=O)(Oc2ccccc2F)Oc2ccccc2F)cc1 → Ba/F3 V617F tox = -2; BaF3 parental = 66*; S1P4 ag = 0.5; RBBP9 inh = 2; S1P4 antagonist = -4
